RGS16-Gao – modulates binding between human RGS16 and Galphao; O15492+P09471; bead-based flow cytometry RGS16-Galphao binding, fluorescence; actives lie on both sides; binding response (% of control), % at 10 µM; 220,000 compounds, 0.38% hits;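 active = below 25% or above 175%, edge rows of some plates excepted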;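 also: Galphao activated by GDP with aluminum fluoride before binding; 100% = wells without compound and 0% = beads without RGS; some results beyond the cut were filed as inactive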
Target sequence (O15492 whole entry, looked up): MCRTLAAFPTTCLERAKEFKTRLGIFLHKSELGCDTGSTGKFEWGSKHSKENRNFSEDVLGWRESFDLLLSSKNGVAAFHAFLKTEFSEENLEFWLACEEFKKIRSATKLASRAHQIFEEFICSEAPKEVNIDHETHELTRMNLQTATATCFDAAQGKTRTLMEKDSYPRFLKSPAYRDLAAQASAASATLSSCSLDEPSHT
Target sequence (P09471 whole entry, looked up): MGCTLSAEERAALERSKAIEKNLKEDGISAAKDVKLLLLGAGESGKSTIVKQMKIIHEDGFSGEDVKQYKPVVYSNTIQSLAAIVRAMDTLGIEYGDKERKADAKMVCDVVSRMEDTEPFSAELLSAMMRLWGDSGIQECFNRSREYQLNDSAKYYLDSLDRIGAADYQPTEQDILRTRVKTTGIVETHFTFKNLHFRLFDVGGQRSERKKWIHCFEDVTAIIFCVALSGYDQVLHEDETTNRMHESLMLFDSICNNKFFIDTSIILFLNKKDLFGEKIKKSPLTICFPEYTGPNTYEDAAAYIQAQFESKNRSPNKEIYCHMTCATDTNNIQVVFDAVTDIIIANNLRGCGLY
PKD1 inh – inhibitors of human PKD1 kinase. PKD1 kinase fluorescence polarization assay. Q15139. inhibition, %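 (about 10 µM by stock and volumes)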. 200,000 compounds, 0.056% hits. AID 797;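 active = inhibition of 50% or more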;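 also: controls were vehicle for no effect and a reference inhibitor for full effect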
HSV replic up – HSV replication enhancement | HSV replication augmentation in cells, fold increase | maximum fold increase | 220,000 compounds, 0.005% hits;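 active = peak rise of 1.5-fold or more in the series; tested in PC3 cells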;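 also: first round at 10 µM; read as green reporter fluorescence; hits show the peak of a series up to 25 µM; 1 = signal of infected wells without compound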
GALR2 agonist – activates the human galanin receptor 2; O43603; GALR2-expressing cells, agonist activation read-out; activation, %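 (tested at 5 µM)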; 140,000 compounds, 0.48% hits;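 active = above mean plus 3 SD of all compounds, about 5% in these data, not always enough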;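 also: 0% = vehicle buffer wells and 100% = reference agonist at full effect; tested in CHO reporter cells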
Target sequence (O43603 whole entry, looked up): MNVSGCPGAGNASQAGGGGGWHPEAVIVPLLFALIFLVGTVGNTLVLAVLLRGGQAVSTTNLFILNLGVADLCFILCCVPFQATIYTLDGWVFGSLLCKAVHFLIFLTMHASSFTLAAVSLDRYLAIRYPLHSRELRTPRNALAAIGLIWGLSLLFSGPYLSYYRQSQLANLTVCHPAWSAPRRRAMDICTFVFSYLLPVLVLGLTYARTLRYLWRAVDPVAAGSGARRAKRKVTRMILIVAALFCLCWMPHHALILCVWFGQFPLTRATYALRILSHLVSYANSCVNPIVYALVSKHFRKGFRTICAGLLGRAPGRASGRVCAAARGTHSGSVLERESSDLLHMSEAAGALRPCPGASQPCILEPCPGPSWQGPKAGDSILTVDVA
INS promoter inh – TRM-6 insulin promoter activity inhibition; TRM-6 cells (human fetal islet line), insulin promoter-eGFP reporter, imaging; reporter expression induced with tamoxifen; inhibition, % at 2 µM; 130,000 compounds, 0.9% hits; AID 1273;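 active = inhibition above the mean plus 3 SD, with well images judged a real hit on visual review, cut at about 60% in these data, passing the limit was not always enough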
INS promoter inh cell count – recorded beside INS promoter inh, whose call it bears; normalized cell count, %; measured here: cell count, toxicity; reference of the scale not given here;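 cells exposed to compound for 48 h; stained nuclei by imaging scaled within each plate; lower means fewer cells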
HSV replic up primary fold – second read-out of HSV replic up, no call of its own (marks repeat the call); fold increase; compound at 10 µM; measured here: primary screen fold increase 10 uM; tested in PC3 cells;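 GFP signal in the first replicate; 1 = infected wells without compound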
Starred values were filed as active, the others as inactive; i = inactive; . = not tested or not shown; & = joins results of further samples. Random draw from the library; overall some 1.3% were active at least once.

mol	RGS16-Gao	PKD1 inh	HSV replic up	HSV replic up primary fold	GALR2 agonist	INS promoter inh	INS promoter inh cell count
COCCNC(=S)N1CCN(C(=O)C(=O)Nc2ccc(C(=O)OC)cc2)CC1	113	2	i	0.99	-1.2	-32	104
O=C(CCc1nc(-c2ccccc2F)no1)NCCN1CCN(Cc2ccccc2)CC1	101	3	i	0.81	-0.4	-105	77
COc1ccc2cc(C(=O)C3CCCN(C(=O)c4cnccn4)C3)ccc2c1 (centres undefined)	99	.	i	0.96	.	.	.
COC(=O)c1ccc(NC(=O)CC2C(=O)N(C)C(=S)N2Cc2ccc(S(N)(=O)=O)cc2)cc1 (centres undefined)	91	.	i	1.2	.	.	.
COc1cc(C(=O)Oc2cccc(Nc3ncnc4ccccc34)c2)cc(OC)c1OC	109	7	i	0.84	0.2	.	.
COc1ccc(CC(=O)Nc2ccc(NC(=O)c3ccccc3F)cc2)cc1	87	-8	i	0.9	.	.	.
O=C(/C=C/Nc1ccc(S(=O)(=O)Nc2ncccn2)cc1)c1ccc2ccccc2c1	95	.	i	1.1	.	.	.
Cc1ccccc1NC1c2ccccc2C(=O)N1Cc1ccco1 (centres undefined)	53	-14	i	0.89	-1.3	.	.
Cc1[nH][nH]c(=O)c1[C@@H](c1ccccc1[N+](=O)[O-])C(C#N)C#N	100	.	i	0.93	.	.	.
COC(=O)c1sccc1NC(=S)Nc1cc(C)ccc1OC	97	1	i	0.86	.	.	.
COc1cc2ncnc(NCc3cccs3)c2cc1OC	102	-7	i	0.79	.	.	.
CCNC(=O)c1c(N)sc2c1CCCCC2	.	13	i	1.1	-2.1	.	.
NC(=O)COc1ccc(NC(=O)c2ccccc2-c2ccccc2)cc1	103	0	i	0.91	.	-59	50
Cn1ncc(Br)c1C(=O)N1CCc2ccccc21	52	-5	i	0.97	2.7	13	58
COc1ccc(-c2cc(-c3nnc(COC(=O)C4CC4)o3)c3ccccc3n2)cc1OC	104	-3	i	0.92	2.3	20	53
CCCCc1cc(=O)oc2c(CN3CCCC3)c(O)ccc12	102	-12	i	0.82	1.7	.	.
CCOC(=O)CCc1c(C)c2ccc(O)cc2oc1=O	105	-1	i	0.98	0.4	-103	157
CSc1ccc(/C=C/C(=O)c2ccc(O)cc2)cc1	87	6	i	0.86	-0.5	.	.
COC(=O)C(NC(C)=O)(Nc1ccccn1)C(F)(F)F (centres undefined)	73	4	i	0.76	-1.4	29	70
O=C(/C=C/c1ccc(F)cc1)N1CCN(c2ncccn2)CC1	104	0	i	0.84	.	.	.
CCCCN(C(=O)CN1CCOCC1)c1c(N)n(CC(C)C)c(=O)[nH]c1=O	100	3	i	1.1	0.9	.	.
Cn1c(N)c(S(=O)(=O)NCc2ccc(Cl)cc2)c(=O)n(C)c1=O	96	5	i	1	.	-50	88
CC(/C=C/c1ccc(OCc2ccccc2)cc1)=N\O	102	5	i	1	-2.6	-47	106
COc1ccc(C(=O)Nc2ccccc2C(=O)NC(Cc2c[nH]c3ccccc23)C(=O)O)cc1 (centres undefined)	107	-3	i	0.99	.	60	119
COC(=O)c1sc(=S)n(-c2cccc(Cl)c2)c1N	88	-5	i	1	-0.4	0	65
O=c1c(Cc2ccccc2)c(O)nc2n1CCS2	105	-4	i	0.93	-1.4	.	.
COc1cc(C(F)(F)F)c(C(=O)NCc2cccc(Cl)c2)cn1	99	.	i	0.96	.	.	.
CCC(C)(C)n1nnnc1C(C(C)C)N1CCC(C(N)=O)CC1 (centres undefined)	76	0	i	0.79	-1.4	-25	140
COc1ccc(-c2nc(N)n(C(=O)c3ccccc3Cl)n2)cc1	101	5	i	1	-1.5	15	97
O=C(NCCCn1ccnc1)C1CC(c2ccccc2Cl)=NO1 (centres undefined)	84	.	i	0.95	.	.	.
CCC(C)C(NC(=O)c1ccccc1NC(=O)c1ccc(C)cc1)C(=O)O (centres undefined)	99	7	i	1.1	.	.	.
CCSC(=O)NC12CC3CC(CC(C3)C1)C2	110	-2	i	0.88	-0.2	27	122
CCc1nnc(NC(=O)CSc2nnc(Cc3cc(=O)[nH]c(=O)[nH]3)n2-c2ccc(OC)cc2)s1	105	-8	i	0.94	.	78*	42*
O=C(Cn1ccccc1=O)c1cccs1	95	-11	i	0.76	-0.7	.	.
Cc1ccc(-n2c(C(C)n3nc(C)c([N+](=O)[O-])c3C)n[nH]c2=S)cc1 (centres undefined)	43	8	i	1.1	-0.8	40	111
CC(=O)c1c[nH]c2ccc(C)cc2c1=O	109	-1	i	1.1	-0.1	31	105
CC(OC(=O)c1cc(-c2cccnc2)nc2ccccc12)C(=O)Nc1ccc2ccccc2c1 (centres undefined)	118	-12	i	0.92	0.2	20	72
CCOC(=O)c1[nH]c(C)c(C(=O)NCCN2CCOCC2)c1C	144	9	i	1.3	-0.3	.	.
Cc1sc2nc(C)n(/N=C/c3ccccc3)c(=O)c2c1C	113	-12	i	0.93	1.9	26	51
CCC1(CC)NC(=O)N(CC(=O)OCC(=O)Nc2ccccc2[N+](=O)[O-])C1=O	101	1	i	1.2	.	.	.
COc1ccc(CN2C(=O)CCCc3ccccc32)cc1	98	-3	i	0.96	.	.	.
Cc1ccc(C(=O)n2cnnc2N)cc1C	109	2	i	0.94	-3.8	48	164
Cc1cc(=O)oc(C)c1C(=O)NCC1COc2ccccc2O1 (centres undefined)	99	-11	i	1	-4.1	-61	109
O=C(CNC(=O)c1ccccc1)OCC(=O)N1N=C(c2ccc(Cl)cc2)CC1c1ccco1 (centres undefined)	96	0	i	0.95	.	.	.
Nc1nc(-c2ccco2)nn1S(=O)(=O)c1ccc(Cl)cc1	97	-6	i	1.1	.	-40	78
Cc1cccc(C)c1NC(=O)CNC(=O)Cc1ccc(Br)cc1	98	8	i	1	.	.	.
CCOC(=O)c1cnc(SCC(=O)Nc2ccc(N3CCOCC3)cc2)nc1N	102	-3	.	.	-3.3	7	97
COc1cccc(Cn2nnc(C(=O)Nc3cc(Cl)ccc3OC)c2N)c1	105	-6	i	1.1	-0.9	.	.

Single records (already shown). Values in the order: RGS16-Gao | PKD1 inh | HSV replic up | HSV replic up primary fold | GALR2 agonist | INS promoter inh | INS promoter inh cell count
Record of O=C(CCc1nc(-c2ccccc2F)no1)NCCN1CCN(Cc2ccccc2)CC1 : 101 | 3 | i | 0.81 | -0.4 | -105 | 77
Record of O=C(Cn1ccccc1=O)c1cccs1 : 95 | -11 | i | 0.76 | -0.7 | . | .
Record of Cn1ncc(Br)c1C(=O)N1CCc2ccccc21 : 52 | -5 | i | 0.97 | 2.7 | 13 | 58
Record of O=C(CNC(=O)c1ccccc1)OCC(=O)N1N=C(c2ccc(Cl)cc2)CC1c1ccco1 (centres undefined) : 96 | 0 | i | 0.95 | . | . | .

The listing continues.
mol	RGS16-Gao	PKD1 inh	HSV replic up	HSV replic up primary fold	GALR2 agonist	INS promoter inh	INS promoter inh cell count
COCCNC(=O)CSc1nc2cc3c(cc2c(=O)n1Cc1ccco1)OCO3	102	-4	i	0.68	-1.5	29	71
CC1=C(C(=O)OCCOC(C)C)C(c2cccnc2)C2=C(CCCC2=O)N1 (centres undefined)	100	-10	i	0.91	0.9	-50	149
O=C(Nc1ccc(Cl)cc1)Nc1nc(-c2sccc2Br)cs1	103	0	.	.	0.2	.	.
O=C(COc1ccc(F)cc1)NN1C(=O)CSC1=S	114	1	i	1.1	.	-18	86
CCc1nc(SCC(=O)N2CCCc3ccccc32)c2oc3ccccc3c2n1	105	-5	i	1.2	-0.8	3	100
Cc1cc([N+](=O)[O-])cnc1Sc1nccn1C	106	0	i	0.98	-1.9	-15	126
O=C(N/N=C/c1ccccc1F)c1ccc(COc2ccccc2Cl)o1	100	-5	i	0.87	-0.4	31	93
CCn1nc(C)c(CN2CCc3c([nH]c4ccccc34)C2C(C)(C)C)c1C (centres undefined)	98	6	i	1.1	.	.	.
COc1cc(S(=O)(=O)NCC2COCCO2)ccc1-n1cnnn1 (centres undefined)	105	15	i	0.74	-2.6	.	.
Cc1ccc(S(=O)(=O)N2CCOCC2)cc1NC(=O)COC(=O)c1ccc(OCc2c(C)noc2C)cc1	103	6	i	1	-1.1	40	166
COc1ccc(N2CC(O)=C(c3nc(C)cs3)C2=N)cc1	103	2	i	1.1	-2.2	.	.
Cc1ccc(CNC(=O)CCc2nc3ccccc3c(=O)[nH]2)cc1	104	-21	i	0.91	-1.1	.	.
O=S(=O)(c1ccccc1F)N1CCN(C(=S)NCc2ccccc2)CC1	97	-6	i	0.85	.	-136	84
O=C(O)CCSc1nnc(-c2cccnc2)n1-c1ccccc1	98	-4	i	0.98	-1.9	-19	134
CC1CCN(c2ccc(/C=C(\C#N)c3nn(-c4ccccc4)c(N)c3C#N)cc2[N+](=O)[O-])CC1	110	-1	i	0.85	-0.9	31	111
CC(C)(C)SCCNC(=O)CN(c1ccc(F)cc1)S(C)(=O)=O	97	1	i	0.97	-0.3	-114	96
CC1CCN(C(=O)C2CCN(CCCc3ccccc3)CC2)CC1	119	-8	i	0.99	-0.2	28	121
CSc1nc(Cc2ccc(Cl)cc2)nc2ccccc12	99	-21	i	0.88	-2.1	.	.
Cc1ccc(OCCNC(=O)/C=C/c2ccc([N+](=O)[O-])cc2)cc1C	104	-10	i	0.94	-3.7	.	.
Clc1c(CSc2nc3ccccc3o2)nc2sccn12	99	-6	i	1.1	-0.4	31	105
CC(=O)Nc1sc2c(c1C#N)CCCCC2	124	-4	i	1	-1.2	-5	129
NC(=O)CCC(NC(=S)Nc1ccccc1)C(=O)O (centres undefined)	109	.	i	1.3	.	.	.
Cc1nc(NC(=O)COc2ccccc2)sc1C(=O)Nc1cccc(Cl)c1	98	-7	i	0.92	-2.7	.	.
COc1ccccc1/C=C/C(=O)OCCCN(C)C	103	-5	i	1.1	.	-59	185
Cc1cccc(CCNC(=O)CCc2nnc(CCc3ccccc3)o2)n1	118	-2	i	0.84	.	30	39
COc1ccccc1Nc1nc(C)cs1	104&110	-4&-5	i	0.96&0.94	-2.6&0.0	3	163
COc1cccc(C(=O)NC(=S)Nc2nnn(C)n2)c1	106	-4	i	0.99	0.3	-58	130
COc1cc(/C=N/NC(N)=O)cc(Br)c1OCc1ccc(C)cc1	105	-7	i	0.8	-0.3	0	94
COc1ccc(Cc2cnc(N)s2)cc1	104	-3	i	0.91	.	.	.
CCCc1nnc(NC(=O)C2CCCO2)s1 (centres undefined)	63	-6	i	0.89	-0.9	-12	116
Cc1ccc(/C=N/N=C2/NC(=O)C(CC(=O)N3CCOCC3)S2)cc1 (centres undefined)	105	1	i	0.89	.	.	.
COc1ccc(OCc2nnc(SC(C)C(=O)Nc3nccs3)n2-c2ccccc2)cc1 (centres undefined)	107	-9	i	1	-1.7	-65	45
Cc1ccc(-c2csc3ncnc(Nc4ccc(N5CCOCC5)cc4)c23)cc1	106	4	i	0.97	-1.2	19	110
O=C(CSCc1cccc(Br)c1)N=Nc1c(O)[nH]c2ccccc12	74	-16	i	0.83	-0.2	0	100

Screening data (PubChem BioAssay)
